CtBP-E1A blk = CtBP/E1A binding inhibition; AlphaScreen GST-E1A/His-CtBP binding, 1536-well; stronger effect = lower value; control for the full effect not named in the record; AID 651724; 340,000 tested, 0.49% active; activity change, % (no concentration beside the values); in the data active means activity change below about -65%; inconclusive means about -30% to -65%; inactive means above about -30%; further: on the % scale 0 is the no-effect control and ±100 the full control effect; compound concentration not given in the record
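AlphaScreen with 125 nM GST-E1A and 125 nM His-CtBP (5X stocks) in Tris pH 8.0, 300 mM NaCl, BSA, Tween 20, TCEP. Compounds preincubated 2 h at 37 deg C, then glutathione donor/nickel acceptor beads added for 1 h at 37 deg C in dark.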
D2 agonist = activates the human D2 dopamine receptor; DiscoveRx PathHunter D2 beta-arrestin, luminescence, 90 min; 100% = 57 uM dopamine signal; activation, % (test concentration not listed); 360,000 tested, 0.084% active; AID 624465; in the data active = activation above about 40%; inconclusive = about 15% to 40%; inactive = below about 15%; further: compound concentration not given in the record; the text of the record calls up to 30% inactive
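DiscoveRx PathHunter D2 beta-arrestin cells (2,100/well) attached overnight, then compound-stimulated 90 min at 37 C in HBSS/10 mM HEPES/0.1% Tween-20 buffer; beta-galactosidase complementation read by luminescence after 1 h at ambient temperature. Dopamine 57 uM final (EC100) as control.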
PINK1 expr mod = PINK1 expression modulation; Potency, µM (top dose mostly 76.6 µM), without a hit: top-dose activation (PINK1 increase), usual class: activators; PINK1 immunofluorescence, high-content cytometry, 24 h; 410,000 tested, 0.2% active; active = well fitted activation curve with a large enough effect; inconclusive = small, poorly fitted or top-dose-only effect; inactive = flat fitted curve, though single readings scatter; cell line not stated here;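 further: potency means the concentration at half of the fitted maximal effect; % of control where 0% means no effect; nearly all actives have a fitted effect of over 65% in size; a mitochondrial uncoupler was the plate control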
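Decision-based qHTS: stable cells, 24 h exposure to five compound concentrations, CCCP as control. Fixed cells stained for PINK1 plus nuclear, mitochondrial and cell markers, cytometer read.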
TRPML1 ag = agonists of human TRPML1 channel; Q9GZU1; activation, % (concentration not given with the values); TRPML1-expressing cells, Ca2+ dye fluorescence, FDSS; host cell line not named in the record; reference of the full effect not given here; 410,000 tested, 0.12% active; in the data active = activation above about 50%; inconclusive = about 30% to 50%; inactive = below about 30%; further: 0% is about no effect; the text of the record puts the active cut at 80%
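Tetracycline-induced TRPML1-DL cells are seeded and incubated overnight before loading with a no-wash Ca2+ dye and quencher. Agonist activity is taken from the 110 s fluorescence read following compound pin-transfer on an FDSS, before EC80 54-4 challenge.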
Six1-Eya2 blk = Six1/Eya2 interaction inhibition. Q15475+O00167. AlphaScreen GST-Six1/His-Eya2 binding, biochemical; stronger effect = lower value; control for the full effect not named in the record. activity change, % (no concentration beside the values). 360,000 tested, 0.56% active. AID 651725; in the data active = activity change below about -65%; inconclusive = about -30% to -65%; inactive = above about -30%; further: on the % scale 0 is the no-effect control and ±100 the full control effect; compound concentration not given in the record
Target sequence (O00167 whole entry, looked up): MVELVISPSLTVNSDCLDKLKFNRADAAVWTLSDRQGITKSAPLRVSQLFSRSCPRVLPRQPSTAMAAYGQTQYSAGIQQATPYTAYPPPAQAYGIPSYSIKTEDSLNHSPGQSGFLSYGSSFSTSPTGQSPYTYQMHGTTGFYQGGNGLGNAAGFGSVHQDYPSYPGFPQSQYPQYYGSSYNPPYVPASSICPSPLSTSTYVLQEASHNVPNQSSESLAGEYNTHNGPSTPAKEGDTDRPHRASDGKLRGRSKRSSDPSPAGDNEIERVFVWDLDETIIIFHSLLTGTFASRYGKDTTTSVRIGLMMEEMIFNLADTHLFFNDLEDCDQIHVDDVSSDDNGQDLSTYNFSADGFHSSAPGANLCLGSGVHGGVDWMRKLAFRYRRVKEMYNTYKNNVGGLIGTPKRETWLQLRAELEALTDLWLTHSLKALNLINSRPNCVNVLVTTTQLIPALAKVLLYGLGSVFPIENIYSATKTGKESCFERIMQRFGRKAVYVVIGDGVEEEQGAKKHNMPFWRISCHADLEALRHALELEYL
Target sequence (Q15475 whole entry, looked up): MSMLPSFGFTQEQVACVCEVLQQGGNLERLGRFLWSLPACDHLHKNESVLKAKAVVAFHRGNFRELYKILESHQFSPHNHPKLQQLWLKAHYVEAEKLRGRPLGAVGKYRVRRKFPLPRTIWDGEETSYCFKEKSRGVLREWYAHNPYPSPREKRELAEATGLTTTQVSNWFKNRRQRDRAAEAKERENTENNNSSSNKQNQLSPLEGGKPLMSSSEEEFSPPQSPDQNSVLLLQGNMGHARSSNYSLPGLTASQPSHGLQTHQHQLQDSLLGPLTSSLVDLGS
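AlphaScreen luminescence read after one hour at 37 °C in darkness. Pin-transferred compounds met GST-Six1 and His-Eya2 protein (5X stock 250 nM/500 nM) plus glutathione donor and Ni-chelate acceptor beads (5X, 50 ug/mL).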
TRPML1 inh = human mucolipin-1 channel inhibition; Q9GZU1; TRPML1-inducible cells, Ca2+ dye fluorescence, FDSS; stronger effect = lower value; inhibition of EC80 agonist-evoked calcium signal; activity change, negative = inhibition, % (no concentration beside the values); 390,000 tested, 0.02% active; AID 624415; in the data active means activity change below about -50%; inconclusive means about -30% to -50%; inactive means above about -30%;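 further: stimulus is agonist 54-4 at its EC80 concentration; on the % scale 0 is the no-effect control and ±100 the full control effect; compound concentration not given in the record; the text of the record puts the active cut at -80%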
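TRPML1-DL cells, Tet-induced overnight (~16 h, 37 °C) at 1,500 cells/well, were loaded with Ca8 no-wash dye plus quencher for 45-90 min at room temperature. Compounds were pinned during FDSS kinetic reading; agonist 54-4 at EC80 (4 uM final) then added.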
* marks the source's active call; other numbers are inactive results; ? = inconclusive; . = not tested or not shown; [ ] = dose if it differs, or a comment. Rows were taken by chance. Share with any hit: about 1%.

Sample of the layout, twelve compounds:
SMILES	CtBP-E1A blk	D2 agonist	PINK1 expr mod	TRPML1 ag	Six1-Eya2 blk	TRPML1 inh
O=C(O)C1c2ccccc2C(=O)N(Cc2ccc(F)cc2)C1c1ccncc1 (stereo not drawn)	.	-5.0	-0.3%	-0.5	10	11
CCCCCC(=O)N1C[C@H](n2cc(COC(=O)c3ccccc3)nn2)[C@@H](O)C[C@@H]1c1ccc(OC)cc1	14	-2.4	0.3%	1.3	-15	-4
O=C1CC(c2ccccc2)=C(c2ccccc2)C1	8	-2.5	1.3%	-0.5	3	4
COc1cc([N+](=O)[O-])cc(/C=N/NC(=O)c2ccc(C)nc2)c1O	-95*	-8.4	-1.7%	4.7	-88*	28
N#Cc1cccc2cccc(S(=O)(=O)N3CCOCC3)c12	1	5.1	0.2%	3.0	2	0
O=C(NC(=S)NC1CCS(=O)(=O)C1)c1cccs1 (stereo not drawn)	-5	0.7	0.0%	0.0	3	-14
O=C(Nc1ccc2c(c1)OCO2)N1CCN(c2ccccc2Cl)CC1	-5	0.0	-2.2%[38.3 µM]	0.6	-6	-8
O=C(N/N=C/C=C/c1ccccc1)c1cnccn1	0	-3.8	1.6%	0.5	13	-4
Cc1c(NC(=O)c2cccc(NS(C)(=O)=O)c2)c(=O)n(-c2ccccc2)n1C	5	-1.0	1.0%	.	-1	.
COC(=O)c1nn(-c2ccc3c(c2)CCN3C(C)=O)cc1O	-9	-2.7	-0.6%[38.3 µM]	3.1	-14	9
O=C1c2ccc(-c3nc4ccccc4o3)cc2C(=O)N1Cc1cccnc1	11	2.3	.	0.5	4	0
COCCn1c(C)cc(/C=C2\NC(=S)N(C)C2=O)c1C	.	-1.4	3.4%	-0.4	-14	-5

All compounds of this part (from the top)
SMILES	CtBP-E1A blk	D2 agonist	PINK1 expr mod	TRPML1 ag	Six1-Eya2 blk	TRPML1 inh
O=C(O)C1c2ccccc2C(=O)N(Cc2ccc(F)cc2)C1c1ccncc1 (stereo not drawn)	.	-5.0	-0.3%	-0.5	10	11
CCCCCC(=O)N1C[C@H](n2cc(COC(=O)c3ccccc3)nn2)[C@@H](O)C[C@@H]1c1ccc(OC)cc1	14	-2.4	0.3%	1.3	-15	-4
O=C1CC(c2ccccc2)=C(c2ccccc2)C1	8	-2.5	1.3%	-0.5	3	4
COc1cc([N+](=O)[O-])cc(/C=N/NC(=O)c2ccc(C)nc2)c1O	-95*	-8.4	-1.7%	4.7	-88*	28
N#Cc1cccc2cccc(S(=O)(=O)N3CCOCC3)c12	1	5.1	0.2%	3.0	2	0
O=C(NC(=S)NC1CCS(=O)(=O)C1)c1cccs1 (stereo not drawn)	-5	0.7	0.0%	0.0	3	-14
O=C(Nc1ccc2c(c1)OCO2)N1CCN(c2ccccc2Cl)CC1	-5	0.0	-2.2%[38.3 µM]	0.6	-6	-8
O=C(N/N=C/C=C/c1ccccc1)c1cnccn1	0	-3.8	1.6%	0.5	13	-4
Cc1c(NC(=O)c2cccc(NS(C)(=O)=O)c2)c(=O)n(-c2ccccc2)n1C	5	-1.0	1.0%	.	-1	.
COC(=O)c1nn(-c2ccc3c(c2)CCN3C(C)=O)cc1O	-9	-2.7	-0.6%[38.3 µM]	3.1	-14	9
O=C1c2ccc(-c3nc4ccccc4o3)cc2C(=O)N1Cc1cccnc1	11	2.3	.	0.5	4	0
COCCn1c(C)cc(/C=C2\NC(=S)N(C)C2=O)c1C	.	-1.4	3.4%	-0.4	-14	-5
O=C(OCn1nnc2ccccc2c1=O)c1cn(-c2ccccc2)nc1-c1cccnc1	-9	-3.5	15%	0.0	-13	11
C/C(CC(=O)N(C(C)C)C(C)C)=N\NC(=O)COc1ccc(Cl)cc1Cl	9	-2.0	0.3%	0.9	-10	53
CCCCc1nc2cc(C(=O)N3CCCC(OCCC)C3)ccc2o1 (stereo not drawn)	6	4.4	1.4%	1.6	-2	5
CCC(CC)c1nnc(NC(=O)CSCC(=O)Nc2cc(C)on2)s1	10	-3.8	-1.8%	-0.1	2	5
Cc1ccc(-c2noc(CCC(=O)N(C)c3ccccc3C)n2)cc1	18	-0.6	1.1%	1.1	9	3
Cc1nc2nc[nH]n2c(=O)c1CC(=O)O	11	-2.2	.	-0.5	-1	5
CC(c1n[nH]c(=S)n1-c1ccc(F)cc1)N1CCCCC1 (stereo not drawn)	5	-3.3	0.3%	-0.9	3	18
CCOC(=O)C1CCCN(C(=S)Nc2ccc(Nc3ccccc3)cc2)C1 (stereo not drawn)	-10	-3.6	1.9%	-1.1	-22	4
CCc1ccc(N2C(=O)CC(Cn3nc(C)cc3C)C2=O)cc1 (stereo not drawn)	.	7.4	0.1%	0.5	-1	-17
COc1ccc(CNC(=O)c2ccc(CNS(=O)(=O)c3ccc(F)cc3)cc2)cc1	.	.	2.8%	2.6	.	41
Cc1cc(=O)c2ccc(C(F)(F)F)cc2[nH]1	-3	-1.9	0.4%	2.5	1	6
COc1cc(S(=O)(=O)Nc2cccc(C)c2)ccc1NC(=O)c1cccnc1	-5	2.4	2.3%	0.4	2	4
FC(F)(F)c1cccc(NC(=S)N2CCN(c3ccccn3)CC2)c1	1	-5.0	0.3%	-0.7	7	9

3 compounds from above, ordered by number of heavy atoms, largest number first.
SMILES	CtBP-E1A blk	D2 agonist	PINK1 expr mod	TRPML1 ag	Six1-Eya2 blk	TRPML1 inh
O=C(OCn1nnc2ccccc2c1=O)c1cn(-c2ccccc2)nc1-c1cccnc1	-9	-3.5	15%	0.0	-13	11
C/C(CC(=O)N(C(C)C)C(C)C)=N\NC(=O)COc1ccc(Cl)cc1Cl	9	-2.0	0.3%	0.9	-10	53
Cc1cc(=O)c2ccc(C(F)(F)F)cc2[nH]1	-3	-1.9	0.4%	2.5	1	6

Going on with the list:
SMILES	CtBP-E1A blk	D2 agonist	PINK1 expr mod	TRPML1 ag	Six1-Eya2 blk	TRPML1 inh
Cc1cc(NC(=O)CSc2nnc(-c3ccncc3)n2-c2ccccc2)no1	.	-1.9	-0.3%	-0.1	-1	18
CCOC(=O)c1c(C)[nH]c(C)c1C(=O)COC(=O)c1ccc([N+](=O)[O-])s1	.	?	3.9%	0.0	-14	-4
CCCCCCN1CCN(C2CN(Cc3cn(CCCC(=O)OC)nn3)S(=O)(=O)C2)CC1 (stereo not drawn)	-1	.	0.8%	-0.9	12	.
CCn1cc(C(=O)OCC(=O)Nc2ccc(F)cc2F)c(=O)c2ccc(C)nc21	.	.	-0.7%	-1.2	.	-10
O=C(NNC(=O)C1CC1)c1cc(=O)[nH]c2ccccc12	-22	-2.7	2.4%	0.0	18	-1
O=C(NCCCN1CCOCC1)c1cccc(S(=O)(=O)N2CCN(c3ccccc3)CC2)c1	10	-8.3	-2.4%	-0.1	0	29
CCOc1ccc(CCNC(=O)C2CC(=O)N(Cc3ccc(OC)cc3)C2)cc1OCC (stereo not drawn)	.	6.0	1.3%	0.0	6	11
CC1(C)CC(=O)C=C(NCCCN2CCCC2=O)C1	-10	0.3	-2.7%	0.4	10	2
O=C(Cc1ccc(S(=O)(=O)N2CCOCC2)s1)NCCOc1ccccc1F	9	-2.7	-1.8%	2.2	-1	10
CCC(C)NS(=O)(=O)c1ccc(N2CCCCS2(=O)=O)cc1 (stereo not drawn)	.	.	2.5%	-0.7	.	2
CC(CN1CCOCC1)OC(=O)c1ccccc1Cl (stereo not drawn)	-14	-1.2	1.0%	-0.4	14	-5
COc1ccc(OCC(O)CN2C(=O)c3ccccc3S2(=O)=O)cc1 (stereo not drawn)	0	-1.1	-0.4%	1.9	0	4
CCOc1cc(N2CCOCC2)c(OCC)cc1NC(=O)COC(=O)CCOc1ccc(C)cc1	-2	-1.2	-3.4%	2.1	4	-8
Cc1cccc(Nc2nc(N)c([N+](=O)[O-])c(N3CCOCC3)n2)c1	-14	-4.6	1.4%	0.0	-17	5
O=C(Nc1ccc(N2CCOCC2)c(Cl)c1)c1ccccc1Cl	-7	0.1	1.0%	-0.6	7	15
C[C@@H]1O[C@@H](OC[C@@H]2O[C@H](Oc3c(-c4ccc(O)cc4)oc4cc(O)cc(O)c4c3=O)[C@@H](O)[C@H](O)[C@H]2O)[C@H](O)[C@H](O)[C@H]1O	9	-3.3	3.5%	-1.1	3	-15
O=C(N/C=C/c1ccco1)OCc1ccccc1	0	-2.9	0.8%	-0.4	-14	10
CN1CCN(c2ncnc3c2ncn3[C@H]2CN(Cc3ccccc3)C[C@@H](CO)O2)CC1	3	-2.7	0.0%	0.1	0	-16
NS(=O)(=O)c1ccc(CCN2C(=O)/C(=C\c3ccc(Cl)cc3)SC2=S)cc1	12	-1.1	6.2%	-0.3	7	13
COc1cc2ccccc2cc1C(=O)N1CCN(c2nc3c(F)cccc3s2)CC1	.	.	1.1%	0.8	.	-8
COc1ccc(C2C3=C(CC(C)(C)CC3=O)Oc3ncn(Cc4ccccc4)c(=N)c32)cc1 (stereo not drawn)	-4	-5.9	43%[38.3 µM]	5.7	-7	27
CCOC(=O)c1cc(-c2ccc(Cl)cc2)nc2c1c(C)nn2CCC#N	15	-7.5	10%	7.5	17	33
O=C1CC(c2cccc(Br)c2)C2=C(COC2=O)N1 (stereo not drawn)	-2	-3.1	-1.0%	-0.1	4	-3
Cn1c(=O)c2c(nc(Sc3ncnn3CC(=O)NC(C)(C)C)n2C)n(C)c1=O	4	-0.9	5.3%	-0.4	11	-13
O=C(O)c1c[nH]c2ccc(S(=O)(=O)N3CCN(c4ccc(F)cc4)CC3)cc2c1=O	-6	2.4	-2.5%[38.3 µM]	-0.4	-1	20
Other records.
SMILES	CtBP-E1A blk	D2 agonist	PINK1 expr mod	TRPML1 ag	Six1-Eya2 blk	TRPML1 inh
CCCN(C(=O)CSc1ccccc1C(=O)O)C1CCS(=O)(=O)C1 (stereo not drawn)	.	-3.9	3.0%	-0.7	-13	-2
C=CCO/N=C/C1=C(O)C(C(=O)OC)C(C)(C)CC1=O (stereo not drawn)	0	-0.2	-0.6%	0.0	0	-23
CCOC(=O)c1cc(S(=O)(=O)NCc2cccc(Cl)c2)[nH]n1	.	.	1.2%	-1.0	.	19
Cc1ccc(C(=O)Nc2cccc3[nH]c(C(F)(F)F)nc23)cc1	5	3.4	?	1.6	-1	-30
CC(C)c1ccc(CN(Cc2ccco2)c2cnc(S(C)(=O)=O)nc2C(=O)Nc2ccc(F)cc2)cc1	.	.	-0.2%	1.0	.	16
CCCNc1c(NS(=O)(=O)c2ccc(OC)c(OC)c2)c(=O)oc2ccccc12	0	-3.7	-0.5%	-0.6	-1	-6
COCCCNC(=O)CN(c1ccc(OC)cc1)S(=O)(=O)c1ccc(NC(C)=O)cc1	1	-4.4	-3.4%	-0.8	3	-6
CCN1C(=O)/C(=C\N(C)C)c2ccccc21	-6	0.9	0.9%	-0.4	6	0

From PubChem BioAssay
